Compound activity: PubChem BioAssay, National Center for Advancing Translational Sciences (NCATS)
ClpP mod: qHTS Assay for Activators of ClpP; ATP-dependent Clp protease proteolytic subunit (Bacillus subtilis (strain 168)), P80244; purified B. subtilis ClpP, FRET peptide cleavage, 20 min; Potency, µM (highest dose often 57.5 µM), for the others: top-dose activity change, negative = active; 1.9% of 340,000 active; AID 651965, 2013; active = well fitted falling curve with a large enough effect; inconclusive = small, poorly fitted or top-dose-only effect; inactive = no such curve, though single readings can be large or run the other way; note: potency is the fitted concentration of half-maximal effect; the source files actives as falling curves though it sought activators and does not explain the sign; nearly all actives have a fitted effect of over 65% in size; many hits overshoot -100%
Target sequence (P80244 whole entry, looked up): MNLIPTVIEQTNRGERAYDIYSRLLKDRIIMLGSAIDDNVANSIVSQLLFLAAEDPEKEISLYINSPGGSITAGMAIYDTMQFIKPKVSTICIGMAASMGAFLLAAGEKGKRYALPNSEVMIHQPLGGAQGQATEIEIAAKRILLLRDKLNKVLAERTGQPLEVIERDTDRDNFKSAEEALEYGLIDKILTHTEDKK
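Buffer: 100 mM Tris/HCl pH8, 100 mM KCl, 0.05% low protease BSA, 2.5% glycerol, 0.01% Tween-20. ClpP 10 microg/mL final; 20 min RT; delta FRET normalized to ADEP and DMSO controls.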
gsp agonist: agonists of gsp mutant (McCune-Albright syndrome); gsp mutant cells, cAMP HTRF, 30 min; control for the full effect not named in the record; Potency, µM (titrated, usually from 76.9 µM), for the others: at the top dose activation (cAMP increase), usual class: activators; 0.13% of 340,000 active; active = well fitted activation curve with a large enough effect; inconclusive = small, poorly fitted or top-dose-only effect, or another doubt; inactive = no such curve, though single readings can be large or run the other way; cell line not stated here;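 note: phosphodiesterase inhibitor Ro 20-1724 added with compounds to block cAMP breakdown; potency is the fitted concentration of half-maximal effect; nearly all actives have a fitted effect of over 60% in size; about a fifth of the inactives were tested at one dose only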
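Cells stably selected in G418 were plated at 2000/well, grown 16-24 hr, then given compounds in DMSO with the PDE inhibitor […] (300 uM solution added) for 30 min at 37C; cAMP was read by HTRF.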
TRPML1 inh: blocks the human TRPML1 channel; Q9GZU1; TRPML1-inducible cells, Ca2+ dye fluorescence, FDSS; active compounds read low; inhibition of EC80 agonist-evoked calcium signal; activity change, negative = inhibition, % (no concentration beside the values); 0.02% of 390,000 active; in the data active means activity change below about -50%; inconclusive means about -30% to -50%; inactive means above about -30%;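 note: stimulus is agonist 54-4 at its EC80 concentration; % is set by controls: 0 for no effect and ±100 for the full control effect; compound concentration not given in the record; the text of the record puts the active cut at -80%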
Target sequence (Q9GZU1 whole entry, looked up): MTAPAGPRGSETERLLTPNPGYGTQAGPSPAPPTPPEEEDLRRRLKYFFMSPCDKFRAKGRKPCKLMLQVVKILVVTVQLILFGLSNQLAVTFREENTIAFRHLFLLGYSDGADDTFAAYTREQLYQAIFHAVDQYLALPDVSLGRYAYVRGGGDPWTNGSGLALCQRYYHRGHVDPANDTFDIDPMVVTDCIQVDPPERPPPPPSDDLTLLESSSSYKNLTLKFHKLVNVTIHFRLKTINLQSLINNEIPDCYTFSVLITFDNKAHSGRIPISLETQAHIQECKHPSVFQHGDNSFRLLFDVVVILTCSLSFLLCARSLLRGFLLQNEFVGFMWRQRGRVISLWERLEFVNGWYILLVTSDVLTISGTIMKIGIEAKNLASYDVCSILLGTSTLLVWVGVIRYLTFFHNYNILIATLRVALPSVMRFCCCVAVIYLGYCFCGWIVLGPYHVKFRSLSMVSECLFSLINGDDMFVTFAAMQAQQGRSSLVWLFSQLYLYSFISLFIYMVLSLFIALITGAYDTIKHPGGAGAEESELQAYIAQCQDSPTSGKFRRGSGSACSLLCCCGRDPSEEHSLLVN
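TRPML1-DL cells, Tet-induced overnight (~16 h, 37 °C) at 1,500 cells/well, were loaded with Ca8 no-wash dye plus quencher for 45-90 min at room temperature. Compounds were pinned during FDSS kinetic reading; agonist 54-4 at EC80 (4 uM final) then added.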
gsp antagonist: antagonists of gsp mutant (McCune-Albright syndrome); gsp-mutant cells, cAMP HTRF, 30 min; control for the full effect not named in the record; Potency, µM (titrated, usually from 76.9 µM), for the others: at the highest dose activity change, negative = inhibition, most hits filed as inhibitors; 0.4% of 340,000 active; AID 624288; active = falling curve of any shape with a large fitted effect; inconclusive = falling curve, mostly with a smaller effect; inactive = flat or rising curve; cell line not stated here;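 note: intracellular cAMP measured with PDE inhibitor Ro 20-1724 present during compound exposure; potency is the fitted concentration of half-maximal effect; % is set by controls: 0 for no effect and ±100 for the full control effect; nearly all actives have a fitted effect of over 65% in size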
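HTRF cAMP measurement after 30 min RT detection following 30 min, 37C compound treatment alongside […] (added as 300 uM solution) in G418-selected cells seeded at 2000/well and grown 16–24 h.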
TRPML1 agonist: agonists of human TRPML1 channel; TRPML1-expressing cells, Ca2+ dye fluorescence, FDSS; host cell line not named in the record; reference of the full effect not given here; activation, % (test concentration not listed); 0.12% of 410,000 active; in the data active = activation above about 50%; inconclusive = about 30% to 50%; inactive = below about 30%; note: 0% is about no effect; the text of the record puts the active cut at 80%
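TRPML1-DL cells, Tet-induced overnight (~16 h, 37 degrees C), loaded 45-90 min at room temperature with Ca8 no-wash calcium dye plus quencher. FDSS fluorescence: 10 s baseline, compound pin-transfer, 110 s agonist read, then EC80 54-4 (4uM final) and 110 s antagonist read.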
Menin-MLL FL inh: menin-MLL binding inhibition, fluorescein peptide; Fluorescence polarization, fluorescein-MLL peptide displacement from menin; FP activity change, % at 61.4 µM; 290,000 tested, under 10 active; inconclusive = falling polarisation curve, or a change in total fluorescence; inactive = total fluorescence flat and polarisation flat or rising; no compound was filed as active; the % refers to the polarisation; negative = inhibition;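 note: % of control where 0% means no effect; inhibitors lower the polarisation; unlabelled MLL peptide was the positive control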
An asterisk follows results filed as active; ? = inconclusive; nt = no result given; [ ] = another dose, or the depositor's remark. Rows are unselected; about 2.1% have a hit in one of these screens.

mol	ClpP mod	gsp agonist	TRPML1 inh	gsp antagonist	TRPML1 agonist	Menin-MLL FL inh
CN(C)C(CNC(=O)Cc1ccc([N+](=O)[O-])cc1)c1ccccc1 (centres undefined)	nt	-1%[15.4 µM]	-10	-39%	-1.1	-0.1
COC(=O)c1ccc(NC(=O)CN2CCOCC2)cc1	-1.8%	-13%	-12	1%	1.3	3.1
O=C(CCN1C(=O)S/C(=C/c2ccccc2)C1=O)Nc1ccc(C(=O)O)c(O)c1	-1.7%	4%	26	5%	4.3	nt
O=C(Cn1c(=O)oc2ccccc21)NC(=O)NCc1ccco1	1.6%	-3%	-9	5%	0.0	0.6
CCOc1ccccc1NC(=O)CN1C(=O)C(C)SC(C)C1=O (centres undefined)	nt	7%[15.4 µM]	9	-4%	-0.6	1.6
CCOC(=O)c1n[nH]n2c1nc(=S)c1ccccc12	nt	?	-15	-25%	0.1	-0.4
CSc1nnc(CNC(=O)c2ccccc2)n1-c1ccc(F)cc1	-1.6%	-31%[inhibitor]	-5	15%	-0.6	-0.5
CCOC(=O)C1CCN(C(=O)CS(=O)Cc2nc(-c3ccc(C)cc3)oc2C)CC1 (centres undefined)	?	-20%	-10	1%	-0.6	5.5
COC(=O)c1sccc1NC(=O)Nc1ccc(OC)cc1	0.6%	22%	-2	-2%	-0.5	-1.4
Cc1cc(C)c(NC(=O)Cn2c(=O)n(CCC(=O)NCc3ccccc3Cl)c(=O)c3sccc32)c(C)c1	2.0%	nt	6	nt	1.5	nt
Cc1cc2[nH]c(=O)c(=O)[nH]c2cc1S(=O)(=O)Nc1cccc(Cl)c1C	-14%	11%	2	5%	0.3	-3.8
Cc1cccc(NC(=O)CNC(=O)COc2ccc(C(=O)c3ccc(F)cc3)cc2)c1C	1.4%	-39%[inhibitor]	-30	3%	0.3	0.5
COc1ccc2nc(-c3ccccc3)nc(C3CCCCC3)c2c1	?	nt	1	-24%	0.3	nt
CCc1ccc(N2C(=O)CSC23C(=O)N(Cc2cccc(F)c2)c2ccccc23)cc1 (centres undefined)	1.6%	nt	-9	nt	3.9	nt
OC(CN1CCCC1)Cn1ccc2ccccc21 (centres undefined)	-3.0%	5%	-12	4%	1.3	0.1
CCOc1ccc(C(=O)N(Cc2ccc(N(C)C)cc2)C2CCS(=O)(=O)C2)cc1 (centres undefined)	-0.2%	5%	4	-6%	-0.1	0.1
CC1CCN(C(=O)CSc2n[nH]c(-c3cccs3)n2)CC1	-12%	1%	23	0%	0.6	2.8
COc1ccc(CN(CC(=O)NC2CCCC2)C(=O)CCC(=O)Nc2nc(C)cs2)cc1	nt	-12%	-12	5%	-0.2	2.1
Cc1ccc(-n2c(N)c(C(=O)Nc3ccccc3F)sc2=S)cc1C	0.7%	-13%	30	-10%	0.1	1.1
FC(F)(F)COc1ccc(-c2nnc(SCc3ccccc3)o2)cn1	18µM*	1%[15.4 µM]	22	-9%	-0.7	-2.4
COCCN(CC1CCCN(C2Cc3ccccc3C2)C1)C(=O)c1cccc(C)c1 (centres undefined)	-0.6%	17%	11	-15%	1.6	2.1
CC(C)(C)OC(=O)NCC(=O)N1CCC(C(=O)O)CC1	-2.1%	0%	10	3%	0.7	5.8
O=C(Cc1ccccc1)N1CCC2(CC1)NCCc1[nH]cnc12	-0.5%	15%	1	2%	2.6	6.9
COc1ccc(CN(C)C(=O)COC(=O)c2cc([N+](=O)[O-])ccc2N2CCCC2)c(OC)c1OC	-1.8%	4%	65	-10%	1.6	nt
COc1ccc(NC2=NC(=S)N(c3cccc(C)c3)C23CCCCC3)cc1	0.2%	15%[15.4 µM]	3	?	3.2	1.6
O=C(N/N=C\c1ccccc1)c1sccc1-n1cccc1	0.4%	-27%	-2	-6%	0.5	3.3
CCN(CC(=O)NNC(=O)c1ccccc1)Cc1ccc(OC)c(F)c1	-0.8%	-20%	-2	18%	2.2	nt
CCOc1ccccc1N(C(=O)Nc1ccc(Cl)cc1)C1=NCCS1	nt	-5%	2	10%	-0.5	0.8
Cc1ccc(N2C(=O)CC3(CCCC3)CC2=O)cc1	nt	16%[15.4 µM]	-8	14%	-0.4	-1.3
Cc1ccc(Cn2ccnc2SCC(=O)Nc2ccc3c(c2)OCO3)cc1	0.0%	nt	19	nt	4.4	nt
Cc1ccccc1C(=O)NC(NC(=O)c1ccccc1C)c1cccc([N+](=O)[O-])c1	0.1%	-3%[15.4 µM]	-12	-19%	-0.2	3.3
O=C1CC(c2cccs2)Cc2nc(NC(=O)C3CC3)ncc21 (centres undefined)	-4.4%	-7%[15.4 µM]	-3	-1%	-0.1	15
Cn1cnnc1SCC(=O)NNC(=O)c1ccc([N+](=O)[O-])cc1	nt	?	-4	8%	0.4	nt
Cc1nn(C)cc1C(C(=O)NC1CCCCC1)N(Cc1ccc(F)cc1)C(=O)c1cnccn1 (centres undefined)	nt	-3%[15.4 µM]	-14	6%	1.0	-0.1
Cc1nc2ccccc2c2oc(C(=O)N3CCC(C)CC3)cc12	-1.4%	-2%	6	2%	9.8	0.1
O=C(CCSc1ccccc1)NC1CCCCCC1	nt	36%[15.4 µM]	-4	-12%	-0.4	-2.2
N#CCO/N=C/C(=O)Nc1ccc(F)cc1F	nt	-58%[inhibitor]	-4	11%	-0.1	-0.7
Cc1onc(-c2ccccc2Cl)c1C(=O)Nc1nnc(-c2ccc(Br)cc2)s1	4.3%	15%	-4	-28%	-0.1	0.9
Cc1cc(NC(=O)c2cccc3ccccc23)cc(C)c1OCC(=O)N1CCOCC1	0.3%	-33%[inhibitor]	-10	-3%	-0.7	-2.4
Fc1ccc(C2=CC(c3ccco3)n3nnnc3N2)cc1 (centres undefined)	nt	3%	9	-8%	3.4	6.3
COc1ccc(Cl)cc1NC(=O)CN(C)Cc1ccc(OC)c(OC)c1	nt	-2%[15.4 µM]	3	-53%	-0.3	-2.7
Cc1ccc(CN2C(=O)CCSc3ccc(Cl)cc32)cc1	-4.8%	?	46	0%[15.4 µM]	2.9	-2.1
Cc1ccc(OCC(=O)Nc2ccc3nc(SCc4ccccc4)sc3c2)cc1	-0.5%	nt	6	nt	0.3	nt
Cc1cccc(C)c1OCc1nc2ccccc2c(=O)n1/N=C/c1c[nH]c2ccccc12	0.9%	8%	-8	-11%	-0.4	1.7
CC1CC(C)CN(C(=O)Cn2c(=O)c3cccn3c3cccnc32)C1 (centres undefined)	3.6%	-4%	0	6%	-0.2	nt
CCN(C(=O)COC(=O)c1cncc(Br)c1)C1CCS(=O)(=O)C1 (centres undefined)	-0.7%	?	-4	9%	-0.9	-6.1
Cc1cc(NCCO)c2cc(O)ccc2n1	16µM*	16%	-3	13%	-0.1	0.3
Fc1ccc(Cn2c(SCc3ccc(F)c(C(F)(F)F)c3)nnc2C(F)(F)F)cc1	1.0%	-19%	12	3%	0.2	-0.4
Cc1ccc(/C=N/N2CCN(c3ccccn3)CC2)o1	-0.2%	3%	-1	5%	-1.2	1.1
COCc1c(C(N)=O)nnn1-c1nonc1N	0.7%	-71%[inhibitor]	-12	3%	-0.2	1.2
NNc1nc2sc3c(c2c(=O)n1-c1ccccc1)CCCC3	nt	-29%[15.4 µM]	10	-18%	-1.0	0.2
O=C1CC(C(=O)Nc2ccccc2)C2(CCCCC2)O1 (centres undefined)	0.9%	5%	9	4%	-0.8	6.8
CC(C)[C@H](NC(=O)[C@@H]1CSC2c3ccccc3C(=O)N21)C(=O)NC1CCCC1 (some centres undefined)	0.7%	-1%	10	3%	0.5	nt
CN(C)c1nc(=NCc2ccco2)ss1	0.6%	-1%	-5	-11%	0.5	?
COc1ccccc1/C=C\C=N\n1c(-c2ccc(Cl)cc2)n[nH]c1=S	1.4%	11%	8	?	2.9	-0.8
Clc1ccc(SCCCCN2CCNCC2)cc1	-0.5%	?	17	26%	5.1	nt
CCCCCCn1c2c(c(=N)c3c1CCC3)CCC2	-2.5%	16%	2	35µM*	-0.3	-3.1
CC1CCN(S(=O)(=O)c2ccc(NC(=O)C3CC3)cc2)CC1	nt	-24%	-6	3%	0.7	7.3
O=C(NCc1ccco1)C1Cc2ccccc2CN1C(=O)c1ccco1 (centres undefined)	nt	3%[15.4 µM]	2	6%	1.3	1.1
Cc1ccc(Cl)cc1NC(=O)c1oc2ccc(S(=O)(=O)N(C)C3CCCCC3)cc2c1C	?	nt	-1	nt	1.1	nt

Going on with the list.
mol	ClpP mod	gsp agonist	TRPML1 inh	gsp antagonist	TRPML1 agonist	Menin-MLL FL inh
CC1(C)CC(C)(c2ccc(O)cc2O)N(c2ccc3ccccc3c2)C(=S)N1 (centres undefined)	-7.3%	11%	-2	?	0.6	6.6
CC(C)(C)NC(=O)CSc1nc2[nH]ncc2c(=O)[nH]1	nt	-1%[15.4 µM]	-10	5%	1.0	-5.9
CC1(C)Oc2ccc3ccc(=O)oc3c2C[C@H]1O	3.5%	-11%	19	10%	-0.5	-0.1
COc1ccc(Cn2cnc3c(N)c(C)c(C)cc32)cc1	nt	-4%[15.4 µM]	6	-8%	-0.4	3.7
CN(Cc1ccon1)C(=O)CCc1nnc(CCCCc2ccccc2)o1	0.0%	4%	5	5%	-0.6	0.8
COc1cc(NC(=O)CCc2c(C)n(C)c3cc(-c4ccccc4C)nn3c2=O)cc(OC)c1OC	3.0%	nt	0	nt	1.2	nt
O=C(CNC(=S)N(Cc1ccccc1)Cc1ccccc1F)NCCc1ccc(Cl)cc1	nt	-15%[15.4 µM]	-6	-12%	5.4	-2.0
Cc1cccc(N/C(N)=N/c2nc(C(F)(F)F)cc(=O)[nH]2)c1C	-0.7%	-10%	41	10%	0.5	0.4
CC(=O)N1c2ccccc2CC1C(=O)N1CCN(c2ccccc2F)CC1 (centres undefined)	-3.2%	nt	33	nt	0.7	nt
COc1cc(NC(C)=O)ccc1-c1cc2ccccc2oc1=O	nt	-6%[15.4 µM]	-15	nt	-0.1	0.0
CCCc1cc(=O)[nH]c(SCc2nc(-c3ccc(C)cc3)no2)n1	-0.8%	nt	15	nt	-0.1	nt
CC(C)(C)OC(=O)C[C@@H]1C/C=C\C[C@H](CC(=O)N(CCO)Cc2ccccc2)C(=O)NC[C@H](c2ccccc2)OC1=O	-0.5%	9%	-12	-26%	-0.6	nt
Cc1csc(=O)n1CCC(=O)OCC(=O)NNC(=O)c1ccccc1	-1.8%	-7%[15.4 µM]	0	15%	0.2	nt
